Compound activity deposited in PubChem by Broad Institute.
HIV Env fusion: inhibitors of HIV-1 Env-driven cell-cell fusion, primary screen, HeLa-JRFL effector, CEM21 target cells, luciferase. inhibition, % at 12.3 µM. hit rate 1.1% among 360,000. AID 651610, 2012;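 active = mean replicate inhibition score of at least 50 and every replicate individually at or above 50; inconclusive = only one of the two criteria met; inactive = mean below 50 and not all replicates reaching 50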;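 note: 0% = plate neutral controls and 100% = maraviroc near 300 nM; one replicate is shown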
Yeast UUG start: modulators of yeast start codon fidelity, primary screen, whole organism, S. cerevisiae, single point, plate reader | S. cerevisiae UUG-firefly luciferase reporter, luminescence/redox ratio | hit rate 0.13% among 350,000 | activity score, % at 18.7 µM;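 active = replicate mean at a twofold rise or more, about +100% in these data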;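 note: firefly luciferase made from a UUG start codon reports start codon fidelity; reporter light over untreated wells divided by growth signal over untreated wells; some hits fall short of that in this replicate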
An asterisk follows results filed as active; u = inconclusive; [ ] = another dose, or the depositor's remark. This is a subset (hit frequency here may not be typical).

Sequence of screens: HIV Env fusion | Yeast UUG start
- COc1ccc(NC(=O)Nc2ccc3c(c2)C(=O)N([C@@H](C)CO)C[C@@H](C)[C@@H](CN(C)C(=O)NC2CCCCC2)O3)cc1
  7.2[16.7 µM] | 8.9
- COc1ccc(NC(=O)N(C)C[C@@H]2Oc3ccc(NC(=O)Cn4cnnn4)cc3CC(=O)N([C@H](C)CO)C[C@H]2C)cc1
  -1.0[16.7 µM] | 5.1
- CC(=O)N(C)C[C@H]1Oc2ncc(C#C[C@H](C)O)cc2C(=O)N([C@H](C)CO)C[C@H]1C
  -10.5[16.7 µM] | 8.4
- C[C@@H]1CN([C@@H](C)CO)C(=O)Cc2cc(NS(=O)(=O)c3cccs3)ccc2O[C@@H]1CN(C)Cc1ccccc1
  -15.8[16.7 µM] | 1.9
- C[C@@H]1CN([C@@H](C)CO)C(=O)Cc2cc(NC(=O)Cc3ccccc3)ccc2O[C@@H]1CN(C)S(=O)(=O)c1cn(C)cn1
  7.9[16.7 µM] | -8.6
- C[C@@H]1CCCCO[C@H](CN(C)S(=O)(=O)c2cn(C)cn2)[C@@H](C)CN([C@H](C)CO)C(=O)c2cc(NC(=O)NC3CCCCC3)ccc2O1
  13.2[16.7 µM] | 6.2
- CN(C)CC(=O)Nc1ccc2c(c1)[C@H]1C[C@H](CC(=O)NCC3CC3)O[C@H](CO)[C@H]1O2
  -9.5[16.7 µM] | 7.0
- Cc1ccc(S(=O)(=O)Nc2ccc3c(c2)CC(=O)N([C@H](C)CO)C[C@H](C)[C@@H](CN(C)S(C)(=O)=O)O3)cc1
  -1.9[16.7 µM] | 22.3
- C[C@H]1CN([C@@H](C)CO)C(=O)c2cc(C#CC3CCCCC3)cnc2O[C@@H]1CN(C)Cc1ccncc1
  -1.7[16.7 µM] | -9.4
- CCC(=O)N(C)C[C@H]1Oc2ncc(-c3cccc(OC)c3)cc2C(=O)N([C@H](C)CO)C[C@@H]1C
  6.1[16.7 µM] | -5.3
- Cc1noc(C)c1S(=O)(=O)Nc1ccc2c(c1)C(=O)N([C@@H](C)CO)C[C@@H](C)[C@@H](CN(C)C(=O)Nc1ccc(C(F)(F)F)cc1)OCCCC[C@H](C)O2
  9.3[16.7 µM] | -7.4
- C[C@@H]1CCCCO[C@H](CN(C)C(=O)Cc2ccccc2)[C@H](C)CN([C@H](C)CO)C(=O)c2cc(NS(C)(=O)=O)ccc2O1
  u | 20.4
- O=C(Nc1ccccc1)N[C@H]1CC[C@@H](CCn2cc(C3(O)CCCC3)nn2)O[C@H]1CO
  7.9[16.7 µM] | 9.8
- COCC(=O)Nc1ccc2c(c1)C(=O)N(C)C[C@H](OC)[C@@H](C)CN(C(C)=O)[C@H](C)CO2
  16.9[16.7 µM] | -0.4
- CNC[C@H]1Oc2ccc(NC(=O)Nc3c(C)noc3C)cc2C(=O)N([C@H](C)CO)C[C@@H]1C
  -1.7[16.7 µM] | -18.1
- C[C@H](CO)N1C[C@H](C)[C@@H](CN(C)C(=O)Nc2ccc(F)cc2)Oc2ncc(C#CC3CC3)cc2C1=O
  -9.5[16.7 µM] | 8.7
- C[C@@H]1CN([C@@H](C)CO)C(=O)c2cc(NC(=O)Cc3cn(C)c4ccccc34)ccc2O[C@H]1CN(C)S(=O)(=O)c1ccc(Cl)cc1
  -9.5[16.7 µM] | -8.1
- C[C@@H]1CCCCO[C@@H](CN(C)Cc2ccccc2)[C@H](C)CN([C@H](C)CO)C(=O)c2cc(NC(=O)Nc3ccc(F)cc3)ccc2O1
  -26.0[16.7 µM] | 5.4
- C[C@@H]1CN([C@H](C)CO)C(=O)c2cc(-c3ccc(C#N)cc3)cnc2O[C@@H]1CN(C)C(=O)Nc1ccccc1
  -10.2[16.7 µM] | -11.3
- CC(C)C#Cc1ccc2c(c1)O[C@@H](CN(C)C(=O)c1cccnc1)[C@@H](C)CN([C@H](C)CO)S2(=O)=O
  23.5[16.7 µM] | 1.4
- CC(=O)N(C)C[C@H]1Oc2cc(C#Cc3ccccn3)ccc2S(=O)(=O)N([C@@H](C)CO)C[C@H]1C
  24.0[16.7 µM] | 4.9
- C[C@@H]1CN([C@H](C)CO)C(=O)c2cc(/C=C/c3ccccc3)cnc2O[C@@H]1CN(C)C(=O)NC1CCCCC1
  3.0[16.7 µM] | 10.4
- C[C@H](CO)N1C[C@H](C)[C@H](CN(C)S(=O)(=O)c2ccc(F)cc2)Oc2c(NC(=O)C3CCOCC3)cccc2C1=O
  -29.1[16.7 µM] | 1.7
- C[C@@H]1CCCCO[C@H](CN(C)C(=O)Nc2ccc3c(c2)OCO3)[C@H](C)CN([C@@H](C)CO)C(=O)c2cc(NC(=O)Nc3cccc4ccccc34)ccc2O1
  22.5[16.7 µM] | -3.0
- C[C@H](CO)N1C[C@H](C)[C@@H](CN(C)S(=O)(=O)c2cn(C)cn2)Oc2ccc(N(C)C)cc2CC1=O
  3.5[16.7 µM] | 15.4
- C[C@H](CO)N1C[C@H](C)[C@@H](CN(C)Cc2cccnc2)Oc2ncc(C3=CCCC3)cc2C1=O
  9.9[16.7 µM] | 0.9
- COCCNC(=O)C[C@@H]1C[C@H]2c3cc(NS(C)(=O)=O)ccc3O[C@H]2[C@H](CO)O1
  12.7[16.7 µM] | 4.7
- C[C@@H]1CCCCO[C@@H](CN(C)C(=O)c2ccccc2)[C@H](C)CN([C@@H](C)CO)C(=O)c2cc(NS(=O)(=O)c3ccccc3)ccc2O1
  7.5[16.7 µM] | 5.5
- Cc1noc(C)c1NC(=O)N(C)C[C@H]1Oc2ccc(NC(=O)Nc3cccc4ccccc34)cc2CC(=O)N([C@H](C)CO)C[C@H]1C
  8.6[16.7 µM] | 4.7
- C[C@@H]1CN([C@H](C)CO)C(=O)c2cc(NS(=O)(=O)c3ccc(F)cc3)ccc2O[C@@H](C)CCCCO[C@H]1CN(C)C(=O)C1CCCCC1
  -126.7[16.7 µM] | 1.0
- C[C@H](CO)N1C[C@H](C)[C@H](CN(C)Cc2ccccc2)Oc2ccc(NS(=O)(=O)c3ccc(F)cc3)cc2C1=O
  -13.3[16.7 µM] | 13.9
- C[C@H](CO)N1C[C@H](C)[C@@H](CN(C)C)Oc2cc(C#Cc3ccc(F)cc3)ccc2S1(=O)=O
  29.9[16.7 µM] | -1.5
- COc1ccccc1-c1ccc2c(c1)O[C@@H](CN(C)S(=O)(=O)c1ccccc1)[C@H](C)CN([C@@H](C)CO)S2(=O)=O
  24.7[16.7 µM] | -13.8
- C[C@@H]1CN([C@H](C)CO)C(=O)c2cc(C#Cc3ccc(F)cc3)cnc2O[C@@H]1CN(C)CC1CCOCC1
  -4.0[16.7 µM] | 6.9
- C[C@@H]1CN([C@H](C)CO)C(=O)c2cc(/C=C/c3ccccc3)cnc2O[C@H]1CN(C)S(=O)(=O)c1ccc(F)cc1
  19.0[16.7 µM] | -9.6
- CN(C)c1ccc2c(c1)[C@H]1C[C@H](CC(=O)NCc3ccccc3)O[C@@H](CO)[C@H]1O2
  18.0[16.7 µM] | -15.1
- C[C@H](O)C#Cc1cnc2c(c1)C(=O)N([C@@H](C)CO)C[C@@H](C)[C@@H](CN(C)C(=O)c1ccccc1F)O2
  13.3[16.7 µM] | 10.1
- C[C@H](CO)N1C[C@H](C)[C@@H](CN(C)S(=O)(=O)c2cccs2)Oc2c(cccc2N(C)C)C1=O
  31.3[16.7 µM] | 4.1
- COc1ccccc1NC(=O)N[C@@H]1CC[C@@H](CCn2cc(-c3cccnc3)nn2)O[C@@H]1CO
  5.4[16.7 µM] | 2.9
- C[C@H]1CN([C@@H](C)CO)C(=O)Cc2cc(N(C)C)ccc2O[C@@H]1CN(C)Cc1ccc(Oc2ccccc2)cc1
  -28.9[16.7 µM] | 13.4

Single records, from the list above. Screens in order: HIV Env fusion, Yeast UUG start
Record of `C[C@@H]1CCCCO[C@@H](CN(C)C(=O)c2ccccc2)[C@H](C)CN([C@@H](C)CO)C(=O)c2cc(NS(=O)(=O)c3ccccc3)ccc2O1` = 7.5[16.7 µM], 5.5
Record of `C[C@H](CO)N1C[C@H](C)[C@@H](CN(C)C)Oc2cc(C#Cc3ccc(F)cc3)ccc2S1(=O)=O` = 29.9[16.7 µM], -1.5
Record of `Cc1noc(C)c1NC(=O)N(C)C[C@H]1Oc2ccc(NC(=O)Nc3cccc4ccccc34)cc2CC(=O)N([C@H](C)CO)C[C@H]1C` = 8.6[16.7 µM], 4.7
Record of `CC(=O)N(C)C[C@H]1Oc2cc(C#Cc3ccccn3)ccc2S(=O)(=O)N([C@@H](C)CO)C[C@H]1C` = 24.0[16.7 µM], 4.9
Record of `C[C@@H]1CN([C@H](C)CO)C(=O)c2cc(C#Cc3ccc(F)cc3)cnc2O[C@@H]1CN(C)CC1CCOCC1` = -4.0[16.7 µM], 6.9

(continued)
Sequence of screens: HIV Env fusion | Yeast UUG start
- O=C(C[C@H]1CC[C@@H]2[C@H](COC[C@H](O)CN2S(=O)(=O)c2ccc(F)cc2)O1)NCC1CCCCC1
  -23.3[16.7 µM] | 19.8
- COc1cccc(NC(=O)C[C@@H]2CC[C@H]3[C@@H](COc4ccc(NS(=O)(=O)c5cccc(F)c5)cc4C(=O)N3C)O2)c1
  12.8[16.7 µM] | 9.4
- C/C=C/c1ccc2c(c1)O[C@H](CN(C)C(=O)NCCC)[C@@H](C)CN([C@H](C)CO)S2(=O)=O
  -22.8[16.7 µM] | 5.3
- C[C@H](CO)N1C[C@H](C)[C@H](CN(C)C(=O)Cc2ccccn2)Oc2ncc(C#CC3CC3)cc2C1=O
  -2.8[16.7 µM] | 0.1
- COCC#Cc1cnc2c(c1)C(=O)N([C@H](C)CO)C[C@@H](C)[C@H](CN(C)C(=O)Cc1cccnc1)O2
  -4.9[16.7 µM] | 14.8
- C[C@@H]1CCCCO[C@@H](CN(C)Cc2ccc(C(F)(F)F)cc2)[C@H](C)CN([C@@H](C)CO)C(=O)c2cc(NS(=O)(=O)c3cccs3)ccc2O1
  9.0[16.7 µM] | -3.8
- COc1ccc(-c2ccc3c(c2)O[C@@H](CN(C)C)[C@H](C)CN([C@H](C)CO)S3(=O)=O)cc1
  5.7[16.7 µM] | 7.4
- COc1cccc(CNC(=O)C[C@H]2C=C[C@@H](NS(=O)(=O)c3ccccc3OC)[C@H](CO)O2)c1
  1.6[16.7 µM] | -0.7
- CNC[C@H]1Oc2c(NC(=O)C3CCOCC3)cccc2C(=O)N([C@H](C)CO)C[C@@H]1C
  19.0[16.7 µM] | -11.8
- C[C@H]1CCCCO[C@H](CN(C)C(=O)Nc2ccc(F)cc2)[C@@H](C)CN([C@@H](C)CO)C(=O)c2cc(NS(=O)(=O)c3ccc(Cl)cc3)ccc2O1
  3.3[16.7 µM] | 26.1
- C[C@@H]1CN([C@H](C)CO)C(=O)c2cc(NC(=O)CCCN(C)C)ccc2O[C@@H](C)CCCCO[C@H]1CN(C)C(=O)Nc1ccc(F)cc1
  12.9[16.7 µM] | -10.6
- C[C@H](CO)N1C[C@H](C)[C@@H](CN(C)C(=O)Cc2ccccn2)Oc2ncc(-c3ccncc3)cc2C1=O
  0.6[16.7 µM] | -12.2
- O=C(NCC[C@H]1CC[C@H](NC(=O)Nc2cc(F)ccc2F)[C@H](CO)O1)Nc1ccc(Cl)cc1
  1.9[16.7 µM] | 7.9
- C[C@@H]1CCCCO[C@H](CN(C)C(=O)c2ccncc2)[C@@H](C)CN([C@H](C)CO)C(=O)c2cc(NS(=O)(=O)c3ccc(Cl)cc3)ccc2O1
  -2.4[16.7 µM] | -4.7
- C[C@@H]1CN([C@H](C)CO)C(=O)c2cc(NC(=O)Cc3ccccc3)ccc2O[C@@H]1CN(C)Cc1ccccc1
  -11.6[16.7 µM] | -5.3
- CCCNC(=O)N1C[C@H](C)[C@H](OC)CN(C)C(=O)c2cc(NS(=O)(=O)CC)ccc2OC[C@H]1C
  -5.4[16.7 µM] | -0.1
- COC(=O)C[C@H]1CC[C@H]2[C@H](COc3ccc(NC(=O)c4cccc(F)c4)cc3C(=O)N2C)O1
  -3.9[16.7 µM] | -2.6
- CNC[C@H]1Oc2ncc(-c3ccccc3F)cc2C(=O)N([C@@H](C)CO)C[C@H]1C
  4.2[16.7 µM] | -7.0
- C[C@@H]1CN([C@@H](C)CO)C(=O)c2cccc(NC(=O)c3ccc(-c4nccs4)cc3)c2O[C@@H]1CN(C)C(=O)Nc1cccc2ccccc12
  -86.1[16.7 µM] | -7.2
- C/C=C/c1cnc2c(c1)C(=O)N([C@@H](C)CO)C[C@@H](C)[C@@H](CN(C)C(=O)c1cccc(F)c1)O2
  4.2[16.7 µM] | -8.9

(continued)
molecule	HIV Env fusion	Yeast UUG start
O=C(Nc1cccc(F)c1)N[C@@H]1CC[C@@H](CCn2cc(Cc3ccccc3)nn2)O[C@@H]1CO	-17.8[16.7 µM]	-13.1
C[C@@H]1CCCCO[C@H](CN(C)C(=O)Nc2ccc(C(F)(F)F)cc2)[C@@H](C)CN([C@@H](C)CO)C(=O)c2cc(NC(=O)Cc3ccccc3)ccc2O1	51.3[16.7 µM]	1.2
O=C(C[C@H]1C[C@@H]2c3cc(NC(=O)CC4CC4)ccc3O[C@@H]2[C@H](CO)O1)NCCc1ccccc1	-32.8[16.7 µM]	-11.1
CN(C)CC(=O)N[C@@H]1CC[C@@H](CCNC(=O)C2CCCCC2)O[C@H]1CO	-4.0[16.7 µM]	1.6
Cc1ccc(S(=O)(=O)Nc2ccc3c(c2)C(=O)N([C@H](C)CO)C[C@@H](C)[C@H](CN(C)S(=O)(=O)c2ccc(C)cc2)OCCCC[C@@H](C)O3)cc1	-13.0[16.7 µM]	-17.8
CCS(=O)(=O)NCC[C@@H]1CC[C@H](NC(=O)Nc2cc(Cl)cc(Cl)c2)[C@@H](CO)O1	-8.0[16.7 µM]	-13.4
